# RGS16-Gao: modulates binding between human RGS16 and Galphao. bead-based flow cytometry RGS16-Galphao binding, fluorescence; actives lie on both sides. binding response (% of control), % at 10 µM. 220,000 tested, 0.38% active;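 active means below 25% or above 175%, edge rows of some plates excepted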;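 further: Galphao activated by GDP with aluminum fluoride before binding; 100% = wells without compound and 0% = beads without RGS; some results beyond the cut were filed as inactive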
# Target sequence (O15492 whole entry, looked up): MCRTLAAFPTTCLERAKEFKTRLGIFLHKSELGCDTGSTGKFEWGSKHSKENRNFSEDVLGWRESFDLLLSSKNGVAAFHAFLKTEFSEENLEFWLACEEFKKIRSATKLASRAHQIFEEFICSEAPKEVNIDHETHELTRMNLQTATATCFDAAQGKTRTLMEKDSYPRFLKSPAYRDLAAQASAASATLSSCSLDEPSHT
# Target sequence (P09471 whole entry, looked up): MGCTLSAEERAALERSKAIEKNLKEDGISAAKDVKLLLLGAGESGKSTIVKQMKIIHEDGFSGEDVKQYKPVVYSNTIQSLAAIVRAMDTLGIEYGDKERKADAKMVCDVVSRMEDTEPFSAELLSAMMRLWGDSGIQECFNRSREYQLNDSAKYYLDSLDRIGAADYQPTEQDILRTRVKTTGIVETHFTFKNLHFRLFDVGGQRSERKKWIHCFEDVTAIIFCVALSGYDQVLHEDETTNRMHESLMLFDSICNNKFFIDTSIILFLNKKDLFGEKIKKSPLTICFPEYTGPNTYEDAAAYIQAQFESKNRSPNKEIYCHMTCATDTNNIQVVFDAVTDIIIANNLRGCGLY
# PKD1 inh: PKD1 (human) kinase inhibition; PKD1 kinase fluorescence polarization assay; inhibition, %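 (about 10 µM by stock and volumes)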; 200,000 tested, 0.056% active; AID 797;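 active means inhibition of 50% or more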;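 further: controls were vehicle for no effect and a reference inhibitor for full effect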
# INS promoter inh: TRM-6 insulin promoter activity inhibition | 130,000 tested, 0.9% active | inhibition, % at 2 µM | TRM-6 cells (human fetal islet line), insulin promoter-eGFP reporter, imaging; reporter expression induced with tamoxifen;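 active means inhibition above the mean plus 3 SD, with well images judged a real hit on visual review, cut at about 60% in these data, passing the limit was not always enough; inconclusive means inhibition over the cutoff but images rejected on review; inactive means inhibition not above the cutoff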
# HSV augment: increases HSV replication in cells; HSV replication augmentation in cells, fold increase; maximum fold increase; 220,000 tested, 0.005% active; AID 1956;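 active means peak rise of 1.5-fold or more in the series; inconclusive means self-fluorescent or not available for retest; tested in PC3 cells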;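 further: first round at 10 µM; read as green reporter fluorescence; hits show the peak of a series up to 25 µM; 1 = signal of infected wells without compound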
# GALR2 ag: GALR2 (human) receptor agonism | O43603 | GALR2-expressing cells, agonist activation read-out | activation, %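 (tested at 5 µM)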 | 140,000 tested, 0.48% active | AID 803;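 active means above mean plus 3 SD of all compounds, about 5% in these data, not always enough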;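 further: 0% = vehicle buffer wells and 100% = reference agonist at full effect; tested in CHO reporter cells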
# Target sequence (O43603 whole entry, looked up): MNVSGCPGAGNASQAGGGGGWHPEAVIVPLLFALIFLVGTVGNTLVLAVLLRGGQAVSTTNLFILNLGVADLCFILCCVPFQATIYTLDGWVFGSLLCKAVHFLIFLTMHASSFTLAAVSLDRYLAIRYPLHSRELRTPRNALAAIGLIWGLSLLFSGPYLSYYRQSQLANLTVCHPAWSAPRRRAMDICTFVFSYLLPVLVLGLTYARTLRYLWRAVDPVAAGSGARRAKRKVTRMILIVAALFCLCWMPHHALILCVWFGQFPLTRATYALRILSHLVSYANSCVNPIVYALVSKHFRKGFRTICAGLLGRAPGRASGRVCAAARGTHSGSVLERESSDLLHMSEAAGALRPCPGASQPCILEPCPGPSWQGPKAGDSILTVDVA
# INS promoter inh cell count: recorded beside INS promoter inh, whose call it bears; normalized cell count, %; measured here: cell count, toxicity; reference of the scale not given here;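 cells exposed to compound for 48 h; stained nuclei by imaging scaled within each plate; lower means fewer cells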
# HSV augment primary fold: second read-out of HSV augment, no call of its own (marks repeat the call); fold increase; compound at 10 µM; measured here: primary screen fold increase 10 uM; tested in PC3 cells;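 GFP signal in the first replicate; 1 = infected wells without compound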
# Active calls of the source: *; i = inactive; ? = inconclusive; . = no result given. An unsorted share of the library. About 1.3% of those tested had a hit in this group.
# The opening nine entries (preview)
no.	Molecule	INS promoter inh cell count	HSV augment	INS promoter inh	GALR2 ag
1	O=C1c2cccnc2C(Nc2ccc(S(=O)(=O)N3CCCCCC3)cc2)N1Cc1ccccc1 (configuration not stated)	24.6	i	35.7	-3.0
2	CC(C)CC(=O)Nc1nnc(SCC(=O)Nc2ccc3c(c2)OCO3)s1	.	i	.	0.2
3	Cc1cc(C)cc(N=Cc2ccc([N+](=O)[O-])s2)c1	129.3	i	-100.0	-1.0
4	Cc1cc(C)c(Nc2cc(S(=O)(=O)O)c(N)c3c2C(=O)c2ccccc2C3=O)c(C)c1	.	i	.	1.2
5	O=C(Cn1c(C(=O)N2CCc3ccccc3C2)cc2sccc21)c1ccccc1	.	i	.	-1.3
6	Cc1cc(CNC(=O)c2cc(Br)ccc2Cl)nn1C	110.7	i	19.4	0.6
7	COc1ccc2c(CC(=O)Nc3ccccc3N3CCOCC3)coc2c1	.	i	.	.
8	Cc1onc(-c2ccccc2)c1-c1n[nH]c(=S)n1-c1ccccc1	51.7	i	-60.5	-2.2
9	COc1ccccc1N1CCN(C(=O)CSc2nnc3c4ccccc4nc(Cc4ccccc4)n23)CC1	.	i	.	-0.6

no.	HSV augment primary fold	RGS16-Gao	PKD1 inh
1	0.99	91.0	-12.5
2	1.17	186.7	0.6
3	0.82	97.0	-0.8
4	0.97	96.7	9.4
5	0.96	98.9	-14.6
6	0.87	102.3	-15.8
7	1.07	105.1	.
8	0.93	.	3.6
9	0.95	70.9	-3.1

# Main list, previewed entries included:
no.	Molecule	INS promoter inh cell count	HSV augment	INS promoter inh	GALR2 ag
1	O=C1c2cccnc2C(Nc2ccc(S(=O)(=O)N3CCCCCC3)cc2)N1Cc1ccccc1 (configuration not stated)	24.6	i	35.7	-3.0
2	CC(C)CC(=O)Nc1nnc(SCC(=O)Nc2ccc3c(c2)OCO3)s1	.	i	.	0.2
3	Cc1cc(C)cc(N=Cc2ccc([N+](=O)[O-])s2)c1	129.3	i	-100.0	-1.0
4	Cc1cc(C)c(Nc2cc(S(=O)(=O)O)c(N)c3c2C(=O)c2ccccc2C3=O)c(C)c1	.	i	.	1.2
5	O=C(Cn1c(C(=O)N2CCc3ccccc3C2)cc2sccc21)c1ccccc1	.	i	.	-1.3
6	Cc1cc(CNC(=O)c2cc(Br)ccc2Cl)nn1C	110.7	i	19.4	0.6
7	COc1ccc2c(CC(=O)Nc3ccccc3N3CCOCC3)coc2c1	.	i	.	.
8	Cc1onc(-c2ccccc2)c1-c1n[nH]c(=S)n1-c1ccccc1	51.7	i	-60.5	-2.2
9	COc1ccccc1N1CCN(C(=O)CSc2nnc3c4ccccc4nc(Cc4ccccc4)n23)CC1	.	i	.	-0.6
10	Cc1nnc(NC2CCCCC2)[nH]c1=O	75.9	i	2.9	-0.7

no.	HSV augment primary fold	RGS16-Gao	PKD1 inh
1	0.99	91.0	-12.5
2	1.17	186.7	0.6
3	0.82	97.0	-0.8
4	0.97	96.7	9.4
5	0.96	98.9	-14.6
6	0.87	102.3	-15.8
7	1.07	105.1	.
8	0.93	.	3.6
9	0.95	70.9	-3.1
10	1.04	95.2	-6.9

# Further structures follow.
no.	Molecule	INS promoter inh cell count	HSV augment	INS promoter inh	GALR2 ag
11	CCCCn1c(SCC(=O)N2CCCC2)nnc1-c1ccccc1	117.0	i	-36.2	-2.2
12	Cc1ccc(NC(=O)C2CCCN(C(=O)c3ccc(Cl)cc3)C2)cc1S(=O)(=O)N1CCOCC1 (configuration not stated)	.	i	.	.
13	O=C(c1cn(-c2ccccc2)nc1-c1ccc(Cl)s1)N1CCOCC1	107.0	i	7.0	-1.6
14	C/C(CC(=O)Nc1cccc(Cl)c1Cl)=N\NC(=O)c1ccccc1N	.	i	.	.
15	O=C(O)c1ccccc1C(=O)Nc1ccc(Br)c(C(F)(F)F)c1	.	i	.	.
16	CCOC(=O)C1CCCCN1Cc1cccc(OC)c1OC (configuration not stated)	126.8	i	-64.5	-3.0
17	O=C(NNS(=O)(=O)c1ccccc1[N+](=O)[O-])c1ccc(O)cc1	90.5	i	41.7	-2.0
18	CC(/C=N/NC(=O)CNc1n[nH]c(=O)[nH]c1=O)c1ccccc1 (configuration not stated)	.	i	.	.
19	Cc1ccccc1Nc1nc(N)nc(CN2CCN(C(=O)c3ccccc3)CC2)n1	.	i	.	.
20	NC(=O)CC(NC(=O)c1ccc(Br)cc1)c1ccc(NCc2ccc(F)c(F)c2)c([N+](=O)[O-])c1 (configuration not stated)	.	i	.	.

no.	HSV augment primary fold	RGS16-Gao	PKD1 inh
11	1.03	85.9	2.1
12	1.03	97.8	-2.6
13	0.75	96.3	-4.9
14	0.98	102.5	3.0
15	0.99	105.5	.
16	0.97	110.2	-6.5
17	0.97	117.0	-9.1
18	1.16	101.5	.
19	1.02	101.1	-1.1
20	0.92	104.2	.

# Next records.
no.	Molecule	INS promoter inh cell count	HSV augment	INS promoter inh	GALR2 ag
21	CN1CCN(C2=CC(=O)OC23CCCCC3)CC1	106.9	i	23.8	-0.2
22	O=C(c1ccccc1)N1CCCN(c2nccc(C(F)(F)F)n2)CC1	.	i	.	.
23	Cc1ccc(NC(=O)CSc2nnc(CNC(=O)c3cccs3)o2)cc1	121.0	i	42.9	.
24	CC(NC(=O)C12CC3CC(CC(C3)C1)C2)c1ccc2c(c1)OCCO2 (configuration not stated)	104.4	i	21.4	-2.6
25	Cc1cc(NCCN2CCOCC2)n2nc(C)c(-c3ccc(Cl)cc3)c2n1	92.5	i	53.3	-0.3
26	CCOC(=O)c1ccccc1NC(=O)CN(c1ccccc1C)S(C)(=O)=O	122.5	i	-55.6	-1.1
27	O=C(c1cccc(N2C(=O)C3C4C=CC(C4)C3C2=O)c1)N1CCN(c2ccccc2)CC1 (configuration not stated)	117.2	i	16.7	.
28	Cc1ccc(CSc2nnc(Nc3ccc(C)cc3)s2)cc1	39.8	i	44.4	-0.9
29	CCOC(=O)/C(=C/c1ccc(OC(=O)c2ccccc2)cc1)C(C)=O	.	i	.	-1.1
30	CSc1ncc(CN2CCN(C3CCCC3)C(CCO)C2)cn1 (configuration not stated)	.	i	.	.

no.	HSV augment primary fold	RGS16-Gao	PKD1 inh
21	0.917	96.4	-5.2
22	1.05	96.2	.
23	0.93	105.2	-4.2
24	0.98	104.0	0.7
25	0.7	101.3	-6.3
26	0.93	101.5	3.3
27	0.94	107.0	-8.1
28	0.73	99.0	-0.3
29	1.02	100.0	-5.5
30	0.92	100.0	0.8

# Going on with the list.
no.	Molecule	INS promoter inh cell count	HSV augment	INS promoter inh	GALR2 ag
31	c1ccc(Sc2cccc3ccccc23)c(CNC2=NCCN2)c1	122.4	i	-27.8	0.5
32	CCOC(=O)C1=C(C)N=C2SC(C(=O)OC)=CC(=O)N2C1c1ccc(OC)cc1 (configuration not stated)	86.2	i	-28.6	.
33	Cc1noc(C)c1C(=O)N1CCC2(CC1)Oc1ccc(F)cc1C(=O)C21CC(c2ccc(Cl)cc2)=NO1 (configuration not stated)	.	i	.	.
34	O=C(COc1ccc(C(=O)c2ccccc2)cc1)NC1CCCCCC1	105.6	i	10.8	0.5
35	Cc1c(/C=N/N2C(=O)C3C4C=CC(C4)C3C2=O)c2ccccc2n1C (configuration not stated)	.	i	.	-0.1
36	COc1ccc(Oc2nc(SC)nc3ccsc23)cc1	125.1	i	6.7	-1.8
37	CCOc1nc(OCC)nc(-n2cc(-c3ccccc3)nn2)n1	148.1	.	-44.4	-2.0
38	O=C(Nc1ccc2c(c1)OCCO2)C1CCCN(S(=O)(=O)c2cccs2)C1 (configuration not stated)	76.5	i	-27.3	-1.1
39	COC(=O)c1ccc(/C=N/NS(=O)(=O)c2cc(C)ccc2C)cc1	166.6	i	0.0	-0.2
40	CC(C)CN1C(=O)c2ccc(C(=O)Nc3c[nH]c(=O)[nH]c3=O)cc2C1=O	.	i	.	.

no.	HSV augment primary fold	RGS16-Gao	PKD1 inh
31	0.54	128.7	-0.3
32	1.07	100.0	-0.6
33	0.67	106.8	.
34	0.94	115.5	-3.8
35	0.97	100.9	-3.0
36	0.86	98.2	2.4
37	.	104.2	0.7
38	1.16	104.7	-8.9
39	0.89	103.2	-6.6
40	1.04	97.5	4.2

# Continuation:
no.	Molecule	INS promoter inh cell count	HSV augment	INS promoter inh	GALR2 ag
41	Cc1ccc(S(=O)(=O)Nc2cc(=O)[nH]c3c2CCC3)cc1	.	i	.	.
42	COc1ccc(O)c(C(=O)C2c3ccccc3C(=O)N2c2ccc(C)cc2)c1 (configuration not stated)	.	i	.	.
43	Cc1ccc(C)c(NC(=S)NCc2ccc3c(c2)OCO3)c1	107.8	?	60.9	-1.2
44	Cc1nnc(NC(=O)c2ccc(S(=O)(=O)N3CCCCCC3)cc2)o1	152.4	i	0.0	-0.9
45	COc1ccc(-c2cc([C@H]3[C@H]4C=CC[C@@H](C)[C@@H]4C(=O)N3Cc3ccccc3)ccc2F)cc1	.	i	.	.
46	CCCCC1=CC2=C(c3ccco3)C(=O)C(C)(OC(=O)c3ccc(OC)cc3)C(=O)C2=CN1Cc1ccc2c(c1)OCO2 (configuration not stated)	.	i	.	.
47	Cc1cc(NC(=O)COc2ccccc2C)no1	.	i	.	.
48	COc1ccc(N2C(=O)CCC(C(=O)N3CCCCC3)C2c2ccc(OC)c(OC)c2)cc1 (configuration not stated)	187.6	i	2.6	-0.5
49	CCO[C@@H]1OC(C(=O)NC2CC2)=C[C@H](C2CC2)[C@H]1CCCO	.	i	.	.
50	Cn1ccnc1C1CCCCN1Cc1nc(Cc2cccc(C(F)(F)F)c2)no1 (configuration not stated)	.	i	.	.

no.	HSV augment primary fold	RGS16-Gao	PKD1 inh
41	1.29	100.0	.
42	1.08	102.9	.
43	.	99.4	-9.7
44	0.86	98.3	-1.7
45	1.17	88.1	.
46	0.88	96.7	.
47	0.95	99.1	-1.1
48	0.91	107.3	-8.1
49	0.97	101.7	.
50	1.13	96.0	-7.2

# (further entries)
no.	Molecule	INS promoter inh cell count	HSV augment	INS promoter inh	GALR2 ag
51	COc1ccc(Cl)cc1NC(=O)CC(C)c1ccccc1 (configuration not stated)	36.4	i	-3.7	-2.2
52	CC(=O)Nc1ccc(CN2CCCC(CO)(Cc3ccccc3C)C2)cc1 (configuration not stated)	.	i	.	.
53	COCCN1Cc2cccc(C(=O)NCCCN3CCCC3=O)c2C1=O	.	i	.	.
54	COc1ccc(-n2c(=O)cc(N3CCN(Cc4ccccc4)CC3)[nH]c2=O)cc1	.	i	.	-1.8
55	COc1ccccc1S(=O)(=O)Nc1ccc(-c2nnc3n2CCCCC3)cc1	67.7	i	-63.9	-0.3
56	N#Cc1ccc(CSC2=NCCN2)cc1	.	i	.	.
57	Cc1nn(-c2ccccc2)c(C)c1C(=O)OCC(=O)N(C)C1CCS(=O)(=O)C1 (configuration not stated)	53.6	i	0.0	.
58	O=C(CSCc1ccccc1Br)N/N=C/c1ccccc1C(=O)O	93.4	i	31.4	.
59	COC(=O)c1nnn(CC(=O)NC(=O)Nc2ccccc2F)c1C(=O)OC	69.1	i	62.5	.
60	COc1cc(S(=O)(=O)NCc2ccccn2)c(OC)cc1Cl	66.5	i	5.6	-1.5

no.	HSV augment primary fold	RGS16-Gao	PKD1 inh
51	0.89	109.8	-2.0
52	1.05	99.8	-3.0
53	1	101.8	.
54	1.08	99.6	-1.3
55	0.93	80.6	-3.5
56	0.82	102.3	-2.2
57	0.97	156.8	-2.6
58	0.79	99.7	2.5
59	1.01	102.0	-4.6
60	0.74	64.1	-4.4

# Continued.
no.	Molecule	INS promoter inh cell count	HSV augment	INS promoter inh	GALR2 ag
61	Cc1ccc(S(=O)(=O)c2c(C)nn(C(C)(C)C)c2OC(=O)C(C)C)cc1	.	i	.	.
62	O=c1cc(CO)oc(CN2CCN(Cc3ccccc3)CC2)c1O	73.3	i	4.2	0.5
63	COc1ccc(Nc2cc(C)nc(N3CCOCC3)n2)cc1	76.9	i	33.3	-3.1
64	CCOC(=O)c1cc(-c2ccccc2)n(CCC(=O)O)c1C	140.7	i	-8.7	-0.7
65	C=CCOc1ccc(Cl)cc1CNCCCN1CCOCC1	128.4	i	7.1	-4.3
66	Cc1ccccc1Cn1cnc2c(NS(C)(=O)=O)c(C)c(C)cc21	120.4	i	-87.5	-1.3
67	COc1ccc(C(=O)N2CCN(c3nnnn3-c3ccccc3)CC2)cc1OC	100.0	i	14.7	1.4
68	COc1cc(-c2nnc(CSc3nnc4nc(C)cc(C)n34)o2)cc(OC)c1OC	169.4	i	-54.5	-0.5

no.	HSV augment primary fold	RGS16-Gao	PKD1 inh
61	0.91	105.0	-0.1
62	0.82	99.2	-9.7
63	0.85	94.1	1.8
64	1.05	102.6	0.5
65	0.9	97.3	-14.8
66	0.99	101.8	4.2
67	1.11	102.3	-7.1
68	1.02	108.2	-6.8
